Source: PubChem BioAssay (National Center for Advancing Translational Sciences (NCATS))
HSD17B inh – blocks hydroxysteroid 17-beta dehydrogenase activity; recombinant HSD17B10, NADH fluorescence kinetic; many of its hits are not listed in these tables; hit rate 7.6% among 75,000; Potency, µM (highest dose often 57.1 µM), without a hit: at the highest dose activity change, negative = inhibition, hits mostly inhibitors; active = well fitted inhibition curve with a large enough effect; inconclusive = small, poorly fitted or top-dose-only effect; inactive = no such curve, though single readings can be large or run the other way;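 note: the protocol describes HADH2 (HSD17B10) and not the HSD17B4 of the title; nearly all actives have a fitted effect of over 70% in size; most hits overshoot -100% by far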
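Enzyme plus compound, 15 min room temperature; substrate mix added (NAD+ 1 mM, beta-hydroxybutyryl-CoA 90 uM final); plates read kinetically for NADH fluorescence. HADH2 was His-tagged, E. coli-derived, 20 nM.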
Active calls of the source: *; ? = inconclusive; [ ] = remark or other dose. % is set by controls: 0 for no effect and ±100 for the full control effect; potency is the fitted concentration of half-maximal effect. Some of the compounds tested. The share of hits here may be higher or lower than overall.

SMILES	HSD17B inh
CSc1nsc(SCCN2C(=O)c3ccccc3C2=O)n1	8%
O=C(OCc1ccccc1)Oc1cncc(C(=O)O)c1	276%[activator]
Nc1nonc1/C(=N/O)N1CCN(CCO)CC1	3%
CCC(Sc1nc(N)c(NC(=O)c2ccc(OC)c(OC)c2)c(=O)[nH]1)C(=O)OC (stereo not drawn)	?
COc1cc(C2N(c3ccccc3)CCN2c2ccccc2)cc(OC)c1OC	-6%
O=C1C=C(O)CC(c2ccc(Cl)cc2)C1 (stereo not drawn)	?
CCc1nc(N)c(C#N)c(-c2cccnc2)c1C	?
CCC1Oc2ccc(C)cc2N(CC(=O)N2CCN(c3ccc(F)cc3)CC2)C1=O (stereo not drawn)	0%
COc1ccc(Oc2ncc3nc(-c4ccc(OC)cc4)c(=O)n(C)c3n2)cc1	-11%
Cc1cc(C(=O)CSc2nnc(-c3ccc(Cl)cc3)n2CC2CCCO2)c(C)n1C (stereo not drawn)	-18%
O=C(NCc1ccccn1)c1c(Cl)cccc1Cl	5%
Cc1onc(-c2ccccc2)c1C(=O)NCc1ccc2c(c1)OCO2	1%
COC(=O)C1C2C=CC3(CN(Cc4ccco4)C(=O)C13)O2 (stereo not drawn)	-2%
CCCS(=O)(=O)N1CCCC(C(=O)NCCCN(Cc2ccccc2)C(C)C)C1 (stereo not drawn)	-2%
COc1ccc(C(=O)NCCNC(C)=O)cc1S(=O)(=O)NCc1ccc(Cl)cc1	-1%
CNC(=O)N(O)C1N(C)C(=O)N(CC(=O)OC)C1(C)C (stereo not drawn)	3%
CCC(=O)Nc1ccc(NC(=O)c2cccc(OC)c2)nc1	0%
CC(=O)Nc1ccc(S(=O)(=O)N2CCN(c3cc(C)nc4ccccc34)CC2)cc1	-25%
O=C(NCC1CCCCC1)C1CCCN(C(=O)NC2CCCCC2)C1 (stereo not drawn)	3%
CCOC(=O)c1cc(NC(=O)N2CCCCC2)c(C)nc1C	19%
COc1cc(-c2nc(Cc3c(F)cccc3Cl)no2)cc(OC)c1OC	2%
CC(=O)N1CCc2cc(Br)cc(S(=O)(=O)N3CCN(C(=O)c4ccco4)CC3)c21	1%
C=C(C)Cn1c(N2CCN(CC)CC2)nc2c1c(=O)[nH]c(=O)n2C	1%
Cc1cccc(S(=O)(=O)Nc2cccc(-c3cn4ccsc4n3)c2)c1	-2%
CCOC(=O)C(CCc1nnc(N)s1)C(=O)OCC	6%
COc1ccc(-c2cc3ccccc3n2CC(O)Cn2nc(C)cc2C)cc1 (stereo not drawn)	25µM*
N#CCC(=O)Nc1ncn(Cc2ccccc2Cl)n1	39%[activator]
CCCC(=O)Nc1ccc(NC(=O)c2cccs2)cn1	7%
COC1C(O)COC1/C=C/c1ccccc1 (stereo not drawn)	-1%[11.4 µM]
COc1cccc(NC(=O)c2ccccc2SC)c1	3%
CCS(=O)(=O)N1CCC(C(=O)NCC2CCCO2)CC1 (stereo not drawn)	3%
C=C1C2=CC(=O)OC(c3ccoc3)[C@]2(C)CCC1[C@]1(C)C=CC(=O)C(C)(C)C1CC(=O)OC (stereo partly drawn)	-3%
Cc1cc(N(C)C)c(C#N)c(N2CCOCC2)n1	-21%
CCN1CCN(Cc2ccccc2NC(=O)Nc2ccc(C)cc2)CC1	4%
O=C(NC1CCCCC1)NC1CC2CCC(C1)N2C(=O)NCc1ccccc1 (stereo not drawn)	8%
COc1ccc(CCNS(=O)(=O)c2ccc3c(c2)CCN3C(=O)CCC(=O)O)cc1OC	-1%
OC(COCc1ccccc1)CN1CCN(c2ccccc2F)CC1 (stereo not drawn)	3%
O=C1c2ccccc2S(=O)(=O)N1CC(O)COc1ccc(Br)cc1 (stereo not drawn)	?
Cc1nc(SCn2nnc3ccccc3c2=O)nc(C)c1C	-3%
COc1ccccc1NC(=O)Cn1c(=O)n2nc(C)nc2c2ccccc21	-2%
C#CCN1C(C)=C(C(=O)OC)[C@@H](c2cccc([N+](=O)[O-])c2)C(C(=O)OCC)=C1C	-9%
COC(=O)CNC(=O)[C@@]1(Cc2ccccc2)C=C[C@@H](C)N1C(=O)c1ccccc1	2%
COCCNC(=O)C1(CC(C)C)C=CCN1C(C)=O (stereo not drawn)	-8%
Cc1cc(NC(=O)CSc2ccc3nnc(-c4ccccn4)n3n2)no1	?
CC(=O)N1CCC[C@@]2(CCN(c3ccncc3)C2)C1	6%

Some of these compounds in order of length of the SMILES, ascending.
SMILES	HSD17B inh
COC1C(O)COC1/C=C/c1ccccc1 (stereo not drawn)	-1%[11.4 µM]
COc1cccc(NC(=O)c2ccccc2SC)c1	3%
N#CCC(=O)Nc1ncn(Cc2ccccc2Cl)n1	39%[activator]
CCOC(=O)C(CCc1nnc(N)s1)C(=O)OCC	6%
COCCNC(=O)C1(CC(C)C)C=CCN1C(C)=O (stereo not drawn)	-8%
Cc1nc(SCn2nnc3ccccc3c2=O)nc(C)c1C	-3%
OC(COCc1ccccc1)CN1CCN(c2ccccc2F)CC1 (stereo not drawn)	3%
CC(=O)N1CCC[C@@]2(CCN(c3ccncc3)C2)C1	6%
CCN1CCN(Cc2ccccc2NC(=O)Nc2ccc(C)cc2)CC1	4%
Cc1cc(NC(=O)CSc2ccc3nnc(-c4ccccn4)n3n2)no1	?
COc1ccc(-c2cc3ccccc3n2CC(O)Cn2nc(C)cc2C)cc1 (stereo not drawn)	25µM*
O=C(NC1CCCCC1)NC1CC2CCC(C1)N2C(=O)NCc1ccccc1 (stereo not drawn)	8%
COc1ccc(CCNS(=O)(=O)c2ccc3c(c2)CCN3C(=O)CCC(=O)O)cc1OC	-1%
COC(=O)CNC(=O)[C@@]1(Cc2ccccc2)C=C[C@@H](C)N1C(=O)c1ccccc1	2%
C#CCN1C(C)=C(C(=O)OC)[C@@H](c2cccc([N+](=O)[O-])c2)C(C(=O)OCC)=C1C	-9%
C=C1C2=CC(=O)OC(c3ccoc3)[C@]2(C)CCC1[C@]1(C)C=CC(=O)C(C)(C)C1CC(=O)OC (stereo partly drawn)	-3%

(next part)
SMILES	HSD17B inh
O=C(c1ccc2c(c1)OCCO2)C1CCN(S(=O)(=O)c2cccc(F)c2)CC1	18%
O=S(=O)(c1cccc2c(S(=O)(=O)N3CCCC3)cccc12)N1CCCC1	4%
Cc1c(C)[n+](=O)c(-c2ccco2)c(C)n1[O-]	-29%
CCOC(=O)C1(C)NC(c2ccc(OC)cc2OC)C2C(=O)N(c3cccc(OC)c3)C(=O)C21 (stereo not drawn)	-6%
C=CCOC(=O)C1=C(C)Nc2nnnn2C1c1cccc(OC)c1OC (stereo not drawn)	5%
COc1c(C)cc(Br)cc1C(=O)Nc1cccc(NC(=O)c2ccco2)c1	?
COc1ccccc1CNc1nc(-c2ccoc2)nc2ccccc12	-21%
O=C1CCCC=C1[C@H](O)CCCCBr	-4%[11.4 µM]
CC1CCCN(S(=O)(=O)c2coc(C(N)=O)c2)C1 (stereo not drawn)	5%
CC1(C)CC23C(=O)CCC(O)C2(C)CCC13 (stereo not drawn)	-2%
COc1ccccc1CNCc1cc(OC)c(OC)cc1OC	-1%
N=c1c2c3c(sc2ncn1N)CCCCC3	-1%
CCOc1ccc(C2N(c3cc(C)on3)C(=O)C3CCCN32)cc1OC (stereo not drawn)	-2%
CCNC(=O)N1C(=O)C2(OCCO2)c2ccccc21	7%
CCN(CC)CCNS(=O)(=O)c1ccc(Cl)cc1	5%
CC(=O)Nc1ccc(S(=O)(=O)N2CCN(C(=O)N3CCOCC3)CC2)cc1	-2%
COc1ccc(NC(=O)c2ccco2)cc1NC(=O)c1cccs1	0%
Cc1ccc2oc(=O)c3c4cc(O)c(O)c(C)c4oc3c2c1	-3%
CN(C)/C=C1\N=C(c2ccc3c(c2)OCO3)OC1=O	8%
O=C1c2ccccc2C(=O)N1CCc1nc(-c2ccccn2)no1	11%
O=C(O)CCCCCN=C1CCc2ccccc2N1	2%
C=CCn1c2ccccc2c2nnc(SCC(=O)NC(C(=O)OC)C(C)C)nc21 (stereo not drawn)	-17%
O=C1NC(Nc2nc3ccccc3s2)(C(F)(F)F)C(=O)N1C1CCCCC1 (stereo not drawn)	-18%
Cc1ccc(CNC(=O)c2ccc(Cn3nc(C)c(Cl)c3C)o2)cc1	20µM*
N#Cc1cccc(NC(=O)N2CC[C@@]3(CCCNC3)C2)c1	-5%
O=S(=O)(CCc1nc2ccccc2o1)c1ccc(Cl)c(Cl)c1	8%
CC(=O)c1sc(NC(=O)c2ccc(Cn3cc(Br)cn3)o2)nc1C	?
CCOC(=O)C1CCN(CC(=O)Nc2c(C(=O)OC)[nH]c3cccc(C)c23)CC1	?
CC(=O)c1c(N(C)C)ccnc1C(F)(F)F	15%
N#Cc1c(NC(=O)Cn2cnc3ccccc3c2=O)oc(-c2ccccc2)c1-c1ccccc1	?
CCOc1ccc(/C(O)=C2/C(=O)C(=O)N(CCOCCO)C2c2ccc(F)cc2)cc1 (stereo not drawn)	-6%
CCn1c(Cc2ccc(OC)cc2)nnc1SCC(=O)NC1CCCCC1	2%
O=C(CSc1nc2ncccc2[nH]1)NCc1ccccc1	-1%
Nc1ccccc1-c1nnc(SCc2ccccc2F)[nH]c1=O	-8%
O=C1CCC(=O)N1c1ccccc1-c1ccccc1	11%
Cc1ccc(Nc2nc(N)nc(CN3CCN(Cc4ccc5c(c4)OCO5)CC3)n2)cc1	-17%
CC(C)C1N(S(=O)(=O)c2ccccc2)CCN1S(=O)(=O)c1ccccc1	-8%
COc1ccc2nc(SCC(=O)Nc3ccc(S(=O)(=O)Nc4onc(C)c4C)cc3)[nH]c2c1	7%
O=C(c1cccc(S(=O)(=O)N2CCOCC2)c1)N1CCCc2ccccc21	-1%
Cc1n[nH]c(C)c1S(=O)(=O)N1CCOCC1	5%
COc1ccc(-n2c(=O)cnc3cnc(OC)nc32)cc1	-6%
S=P(c1ccc(N2CCOCC2)cc1N1CCOCC1)(N1CCOCC1)N1CCOCC1	-15%
COC(=O)C1(CCSC)NC(c2ccc(O)cc2)C2C(=O)N(c3ccc4c(c3)OCCO4)C(=O)C21 (stereo not drawn)	-5%
COc1ccccc1C(=O)N1CCN(c2cccc(Cl)c2)CC1	-20%
N#Cc1ccc(OCC(=O)NCCc2ccc(S(N)(=O)=O)cc2)cc1	-12%
FC(F)Oc1ccc(-c2csc(Cc3nnc4n3CCCCC4)n2)cc1	-4%
CCOC(=O)COc1ccc(Cl)cc1C1NC(=O)NC(C)=C1C(C)=O (stereo not drawn)	5%
CCOC(=O)C1=C(C)N=c2s/c(=C\c3cccn3C)c(=O)n2C1c1cccc(OC)c1OC (stereo not drawn)	-7%
COCCN1CCN(c2c(C)c(C)nc3cc(-c4cccc(OC)c4)nn23)CC1	5%
O=C(Nc1nnc(-c2ccccc2)o1)NC1CCCCC1	13µM*
CC1CC(=O)c2cnc(NCC3CCCO3)nc2C1 (stereo not drawn)	-11%
COc1cccc(N2C(=O)C(CC(=O)Nc3ccc(F)cc3)N(C3CCCCC3)C2=O)c1 (stereo not drawn)	-6%
Cc1ccc(CCNC(=O)C2CCN(C(=O)c3sccc3-n3cccc3)CC2)cc1	1%
CSc1ccccc1C(=O)NC1CC2CCC1C2 (stereo not drawn)	?
COc1ccc(S(=O)(=O)Nc2ccc(F)c(F)c2)cc1Cl	11%
O=C(O)C1C2C=CC3(O2)C1C(=O)N1c2ccccc2COC13 (stereo not drawn)	-6%
O=C(Nc1ccc2c(c1)OCO2)C1CCN(c2ccc(S(=O)(=O)N3CCOCC3)cc2)CC1	-4%
COc1ccc(-c2nc3cnccn3c2Nc2ccc3c(c2)OCO3)cc1	-5%
CC(NC(=O)c1cccs1)C(c1cccs1)N1CCN(c2ccccc2)CC1 (stereo not drawn)	4%
CCOC(=O)c1sc(/N=C/N(C)C)c(C(=O)OCC)c1C	-9%

Continuation:
SMILES	HSD17B inh
CCCn1c(-c2ccc(F)cc2)n[nH]c1=S	-10%
CCOC(=O)c1ccc(N2C(=O)CC(NC3CCN(C(=O)c4cccc(Cl)c4)CC3)C2=O)cc1 (stereo not drawn)	2%
CN(C)CC[C@H](c1ccc(Br)cc1)c1ccccn1	-3%[25.6 µM]
O=c1ccc(=O)n2n1CC(O)C2	-9%
Nc1cnn(C2CCCO2)c(=O)n1 (stereo not drawn)	0%
Cc1cccc(C(=O)OCC(=O)Nc2ccc(N3CCCCC3)cc2)c1O	4%
O=C(NCCCN1CCOCC1)c1cc(-c2ccc(Br)cc2)on1	5%
CSc1nsc(SCc2cnc(C)nc2N)n1	13%
CCOc1ccccc1-n1c(SCC(N)=O)nc2ccccc2c1=O	13%
O=C(O)C1CCCCC1C(=O)Nc1nccs1 (stereo not drawn)	6%
CCCC(=O)C1=C(O)C(C(=O)OC)C(C)(C)CC1=NC (stereo not drawn)	-3%
O=C(Nc1ccc2oc(-c3ccccc3)nc2c1)c1cccnc1	-5%
CCCCCOc1ccc(NS(C)(=O)=O)cc1	2%
O=C(COc1ncnc2ccccc12)N1CCN(C(=O)c2ccco2)CC1	18%
Nc1nc2c(c(=O)[nH]1)N[C@H](CCNc1ccc(C(=O)O)cc1)CN2	-6%[11.4 µM]
CSc1ccc(NC(=O)[C@H]2CCCC[C@@H]2C(=O)O)cc1	5%[11.4 µM]
Cc1ccc(OCCN2C(=O)c3ccccc3C2=O)c(C)c1	-6%
